# Compound activity deposited in PubChem BioAssay by National Center for Advancing Translational Sciences (NCATS).
# VACV mCherry inh = inhibitors of vaccinia virus infection (mCherry reporter signal); AID 720579; Potency, µM (series often up to 36.5 µM), without a hit: top-dose activity change, negative = inhibition, usual class: inhibitors; Vaccinia virus mCherry reporter infection, fluorescence; about a quarter of the inactives have no number; 0.63% of 310,000 active; active = well fitted inhibition curve with a large enough effect; inconclusive = small, poorly fitted or top-dose-only effect; inactive = no such curve, though single readings can be large or run the other way; tested in A549 cells; further: nearly all actives have a fitted effect of over 35% in size; inactives centre near -10
# Vaccinia Venus = vaccinia inhibition (Venus reporter). Vaccinia virus Venus reporter expression, fluorescence. Potency, µM (titrated, usually from 36.5 µM), for inactives: at the top dose activity change, negative = inhibition, actives largely listed as inhibitors. 0.46% of 330,000 active; active means well fitted inhibition curve with a large enough effect; inconclusive means small, poorly fitted or top-dose-only effect; inactive means no such curve, though single readings can be large or run the other way; tested in A549 cells; further: nearly all actives have a fitted effect of over 30% in size; inactives centre near -10
# Active calls of the source: *; i = inactive; ? = inconclusive; . = no result given; & = joins results of further samples; [ ] = dose if it differs, or a comment. On the % scale 0 is the no-effect control and ±100 the full control effect; potency means the concentration at half of the fitted maximal effect.
SMILES,VACV mCherry inh,Vaccinia Venus
Cn1c2ccccc2c2c(C(=O)N3CCN(c4ccccc4)CC3)cn(C3CCCC3)c(=O)c21,-20%,?
O=S(=O)(NCCSCc1ccc(Cl)cc1Cl)c1ccc2c(c1)OCCO2,-10%,-20%
Cc1ccc2[nH]c(=O)c(CN(Cc3cccs3)S(=O)(=O)c3ccc4c(c3)OCCO4)cc2c1,-7%,8%
CCCCC[C@@H]1C=C(C(=O)O)[C@H](c2ccc(C#N)cc2)N1S(=O)(=O)c1ccc(C)cc1,-8%,-20%
CCCOc1ccc(C(=O)NNC(=S)NC(=O)c2ccccc2[N+](=O)[O-])cc1,0%,-18%
CC1(C(=O)Nc2cccc(C#N)c2)CCN1C(=O)C/C=C/c1ccccc1 (configuration not stated),i,-9%
CCC(Oc1ccccc1)C(=O)Nc1nnc(S(=O)(=O)Nc2ccccc2)s1 (configuration not stated),-8%,-5%&-7%
COC(=O)c1cc2ccsc2n1CC(=O)Nc1cc(Cl)ccc1OC,?,?
C1CCN2CC3CC(CN4CCCC[C@@H]34)[C@H]2C1,i,-5%
COc1cc(OC)c2c(-c3ccccc3)cc(=O)oc2c1C(CCN1CCOCC1)c1ccc(N(C)C)cc1 (configuration not stated),?,?
CCCCN(C)CCNC(=O)Cn1ncc2c(=O)oc3ccc(C)cc3c21,-5%,1%
Cc1ccccc1NC(=O)C(=O)NCCCN1CCCC1=O,-7%,-9%
CCc1ccccc1N(CC)C(=O)c1cc2c(s1)-c1ccccc1SC2,3%,-1%
O=C(Nc1cccc(F)c1)C1CC(=O)N(c2ccc(Br)cc2)C1 (configuration not stated),-2%,-21%
Cn1cc(CN2CCCC(C(=O)c3ccc(-c4ccccc4)cc3)C2)cn1 (configuration not stated),0%,-16%
O=C(CNC(=O)C1CCCCC1)OCC(=O)c1ccc(Cl)s1,-2%,-2%
CCC(=O)n1nc(-c2ccco2)nc1N,i,-15%
O=C(CN1CCN(C2CCCCC2)CC1)Nc1ccc(Br)cc1,i,-13%
CC(=O)Nc1ccc(S(=O)(=O)Nc2ccc(-c3cn4c(C)csc4n3)cc2)cc1,-10%,7%
COc1ccccc1C(CNC(=O)CSc1ccc2ccccc2c1)N(C)C (configuration not stated),-21%,-22%
CCC/C=N/Nc1nnc(Cc2ccccc2)c(=O)[nH]1,-15%,-12%
Cc1ccc(Cl)cc1-n1c(=O)c2sc3ccccc3c2n(Cc2ccccc2)c1=O,-1%,2%
O=C(c1ccc(SCc2cccc(Br)c2)c([N+](=O)[O-])c1)N1CCN(c2ccccn2)CC1,i,-6%
CCOc1ccc(Cn2c(CNS(=O)(=O)c3c(C)cc(C)cc3C)nc3cccnc32)cc1,-14%,-8%
O=[N+]([O-])c1ccccc1S(=O)(=O)Nc1nc2ccccc2s1,-10%,1%
COc1ccc(CC(=O)N2CC(=O)Nc3ccc(F)cc3C2c2ccccc2)cc1 (configuration not stated),-7%,-10%
O=C(O)c1ccc(N/N=C/c2ccc(OC(=O)c3ccccc3Cl)cc2)cc1,-11%,-11%
Cc1nc(NN)c2c3c(sc2n1)COC(C)(C)C3,-5%,2%
O=C(CNC(=O)OCc1ccccc1)NCC(=O)Oc1ccc([N+](=O)[O-])cc1,i,-14%
Cc1ccc(S(=O)(=O)N2CCC(C(=O)N3CCN(c4ccccn4)CC3)CC2)cc1C,i,-22%
O=C(CSCc1ccco1)c1cccs1,.,-10%
CC(=O)N[C@@H]1C=C[C@@H](CC(=O)NCc2ccc(Cl)cc2)O[C@@H]1CO,i,-20%
COc1cccc(Nc2ncc(C(=O)O)c3ccccc23)c1,.,1%
COc1cc(N)c(NC(=O)/C=C/c2nc3cc(OC)c(OC)cc3[nH]2)cc1OC,-22%,-10%
CCOC(=O)C(Cc1ccccc1)NC(C)=O (configuration not stated),-2%,-13%
O=C(Nc1ccc2[nH]ncc2c1)c1cccc(F)c1,-7%,2%
Cc1cc(C)cc(-n2ccnc2SCC(=O)Nc2ccc(C)c(Cl)c2)c1,-18%,2%
O=C(NCCc1ccccc1)c1nn(-c2ccccc2F)nc1CO,-11%,-14%
CC(=O)c1ccc(N2CCN(CC(=O)N(C3CC3)C3CCS(=O)(=O)C3)CC2)c(F)c1 (configuration not stated),-5%,-12%
CCO/C=C/C(O)(CNC(=O)COc1ccccc1F)C(F)(F)F (configuration not stated),-10%,-3%
COc1cc(-c2oc3ccc(C)cc3c(=O)c2O)cc(OC)c1OC,?,-19%
O=C(c1n[nH]c(=O)c2ccccc12)N1CCN(c2ccccc2)CC1,-18%,-1%
Cc1ccc(N(C(=O)C(F)(F)F)C(C(=O)NC2CCCCC2)c2cccs2)cc1 (configuration not stated),-20%,-18%
O=C(Nc1ccccc1Oc1ccccc1)[C@@H]1O[C@H](CO)[C@H](O)[C@H](O)[C@H]1O,17%,5%
O=C(NCc1cccnc1)c1cc(C2CCCCN2C(=O)c2ccc(Cl)cc2)on1 (configuration not stated),14%,2%
CC(C)n1cc(NC(=O)c2cc(-c3ccccc3)on2)cn1,?,?
CCCCCN1CC(O)=C(c2ccccc2)C1=N,-5%,-1%
CCC(=O)c1ccc(OCC(=O)OCC(=O)NCCCc2ccccc2)cc1,-8%,-6%
COC(=O)c1ccc2c(=O)n3nc(Nc4ccc(F)cc4F)sc3nc2c1,-10%,-8%
CN1C(=O)c2ccccc2Sc2ccc(C(=O)O)cc21,-15%,-18%
CC(=O)Nc1ccc([As](=O)(O)c2ccc([N+](=O)[O-])cc2)cc1,-15%,-12%
CC1CCn2c(nc3cc(C(=O)NCc4ccc(OC(C)C)cc4)ccc32)C1 (configuration not stated),i,-7%
COc1ccc(NC(=O)C/C(C)=N/NC(=O)c2cccs2)c([N+](=O)[O-])c1,-18%,-9%
CCNC(=S)Nc1ccccc1-c1ccccc1,-3%,5%
CCC(C)Nc1nc2c(c(=O)n(C)c(=O)n2C)n1C (configuration not stated),6%,-20%
Cn1ccnc1C(O)(c1ccccc1)c1ccccc1,i,-10%
CC(C(=O)Nc1ccccc1Oc1ccccc1)c1ccccc1 (configuration not stated),i,-13%
Cc1ccc(OCCn2c(=S)[nH]c3c(N)ncnc32)cc1,-2%,-11%
c1ccc(C[C@H]2CN=C(Nc3ccccc3)N2CCCC2CCCC2)cc1,?,-18%
CCOc1ccc(CNC(=O)c2nnc(CS(=O)(=O)c3ccccc3)o2)cc1OC,i,-11%

# Following part
SMILES,VACV mCherry inh,Vaccinia Venus
O=C(O)c1cccc(N2C(=O)c3cccc4c(Cl)ccc(c34)C2=O)c1,0%,7%
CC(C)c1c(O)cc(-c2ccncc2)n(-c2ccc(Cl)cc2)c1=O,-20%,-5%
CN1CCC2(CC1)c1ccccc1-c1ccccc12,?,-23%
COc1cccc(-c2nnc(NC(=O)c3cccc(F)c3)o2)c1,?,-23%
COc1ccc(N2CCN(C(=O)c3cc(NC(C)=O)c4c(c3)ncn4CCc3ccccn3)CC2)cc1,i,-5%
C[C@@H]1C=C(C(=O)NCc2nc3ccccc3[nH]2)O[C@H](OCCCCO)C1,i,0%
CCO[C@@H]1OC(C(=O)N2CCN(Cc3ccc4c(c3)OCO4)CC2)=C[C@H](c2ccc(Br)cc2)[C@H]1CCCO,-27%,?
CCOc1ccc(Nc2nc(Cc3nnc(SCC(=O)c4ccc(C)cc4)o3)cs2)cc1,-12%,1%
COc1ccc(F)cc1S(=O)(=O)n1nnc2ccccc21,-1%,-23%
O=C(CC12CC3CC(CC(Br)(C3)C1)C2)NC1=NCCS1,i,-13%
CN1CCN(Cc2cn(C)c3ccccc23)CC1CCO (configuration not stated),-16%,-9%
O=C(NCc1ccc2c(c1)OCO2)c1ccccn1,3%,8%
Cc1ccc(-c2ccc(S(=O)(=O)Nc3cccnc3)cc2)cc1,-9%,-19%
Cc1ccc(NC(=O)c2nnn(Cc3ccccc3)c2N)cc1C,5%,-9%
Cc1c(NC(=O)c2cccc3c(Cl)cccc23)cccc1-c1nc2ccccc2o1,-7%,-16%
CN1CCCN(C(=O)C2CCCCC2)CC1,-28%,-5%
C=CCNc1nc2c(c(=O)[nH]c(=O)n2C)n1Cc1cccc(C)c1,?,-12%
CCOc1cccc(NC(=O)C2CC(=O)N(C)C2)c1 (configuration not stated),-15%,-1%
CCOC(=O)/C(C#N)=C\c1ccc(N2CCN(C)CC2)cc1,-14%,-4%
Cc1ccc(C(=O)NNC(=O)C2CSC3(C)CCC(=O)N23)cc1 (configuration not stated),-15%,-4%
O=c1c2oc3ccccc3c2n(Cc2ccc(Cl)cc2)c(=O)n1Cc1ccco1,-17%,-19%
CCCCCCc1cc2cc(-c3nnc(-c4cccc(Cl)c4)o3)c(=O)oc2cc1O,-10%,-4%
COC(=O)c1c(-c2cccs2)csc1NC(=O)COc1ccccc1,-12%,-9%
CCOC(=O)C(Cc1ccccc1)NC(=O)CCc1nnc2ccc(N3CCCCC3)nn12 (configuration not stated),0%[7.34 µM],5%[7.34 µM]
CN1C(=O)C(C)(C)c2cc(S(=O)(=O)NCC3CCC(C(=O)NCc4ccc(F)cc4)CC3)ccc21 (configuration not stated),-20%,-10%
CCOC(=O)c1c(C)[nH]c(C(=O)OCC(=O)NCc2ccco2)c1C,i,-22%
CCOc1ccc2nc(N3CCCC(C(=O)NCc4ccccc4OC)C3)sc2c1 (configuration not stated),5%,-7%
CCOC(=O)N1CCN(C(=O)COc2ccc([N+](=O)[O-])cc2)CC1,-2%,-11%
Cc1ccc(NC(=O)c2cc(S(=O)(=O)N3CCOCC3)cn2C)c(C)c1,-19%,-2%
Cc1cccc(C)c1NC(=O)C1(C)CSCC(=O)N1CC(C)C (configuration not stated),?,-18%
CCn1cc(CN2CCC(C(=O)Nc3cccc(-c4cccc(F)c4)c3)CC2)cn1,-7%,-24%
O=C(C1=NN[C@@H]2C(=O)N(c3cccc(C(F)(F)F)c3)C(=O)[C@H]12)C(c1ccccc1)c1ccccc1,-5%,3%
CCOC(=O)C1CCCN(C(=O)c2cc3cc(Br)ccc3oc2=O)C1 (configuration not stated),i,-26%
Cc1cc(C)nc(Nc2ncc(O)n2-c2ccccc2)n1,i,-10%
COc1ccc(CCN2CC(C(=O)NCc3cccc4[nH]ccc34)CCC2=O)cc1 (configuration not stated),-20%,-5%
COCC(=O)NNC(=O)c1ccccc1OC,i,-1%
Cn1cc(C=C2C(=O)NC(=O)NC2=O)c2ccccc21,i,-20%
O=C(Cc1ccccc1[N+](=O)[O-])OCC(=O)N1CCN(c2ccccc2)CC1,-29%,2%
Cc1ccc(NS(=O)(=O)c2ccc(OCC(=O)NCc3ccco3)cc2)cc1,.,-16%
Cc1ccsc1CN1CCc2nnc(CCNC(=O)c3ccc(F)cc3)n2CC1,i,-18%
COc1ccc(OC)c(NC(=O)C2CCCCC2C(=O)O)c1 (configuration not stated),.,-17%
COc1cccc(NC(=O)CSc2nn3c(=O)c(C)nnc3s2)c1,-18%,-13%
CN(c1ccc(C(=O)O)cc1)S(=O)(=O)c1ccc(Cl)cc1,.,-5%
Cc1nn(Cc2ccccc2)c(=O)n1N(C)c1ncc(C(F)(F)F)cc1Cl,8%,0%
CCCCOC(=O)Nc1cccc(C(=O)OCC)c1,.,-16%
Cc1ccc(C)c(NC(=O)Cn2nc(C)c3nn(-c4ccc(Cl)cc4)c(C)c3c2=O)c1,?,?
CCCCCCCCNc1ncnc2[nH]ncc12,-3%,-13%
CCC(O)CNC(=O)c1cnn(-c2nccc(-c3cc(C)sc3C)n2)c1C1CC1 (configuration not stated),-25%,-12%
Cc1cccc(Oc2c(C=O)c3ccccc3n2C)c1,-25%,-22%
CCCCNC(=O)C1CCCN(S(=O)(=O)c2ccc(-n3cnnn3)cc2)C1 (configuration not stated),-11%,0%

# 17 compounds out of the list, ordered by molar mass, smallest number first.
SMILES,VACV mCherry inh,Vaccinia Venus
COCC(=O)NNC(=O)c1ccccc1OC,i,-1%
CCCCCCCCNc1ncnc2[nH]ncc12,-3%,-13%
Cc1cccc(Oc2c(C=O)c3ccccc3n2C)c1,-25%,-22%
Cc1cc(C)nc(Nc2ncc(O)n2-c2ccccc2)n1,i,-10%
COc1ccc(OC)c(NC(=O)C2CCCCC2C(=O)O)c1 (configuration not stated),.,-17%
CN(c1ccc(C(=O)O)cc1)S(=O)(=O)c1ccc(Cl)cc1,.,-5%
COc1cccc(NC(=O)CSc2nn3c(=O)c(C)nnc3s2)c1,-18%,-13%
O=C(Cc1ccccc1[N+](=O)[O-])OCC(=O)N1CCN(c2ccccc2)CC1,-29%,2%
CCCCNC(=O)C1CCCN(S(=O)(=O)c2ccc(-n3cnnn3)cc2)C1 (configuration not stated),-11%,0%
Cc1nn(Cc2ccccc2)c(=O)n1N(C)c1ncc(C(F)(F)F)cc1Cl,8%,0%
Cc1ccc(NS(=O)(=O)c2ccc(OCC(=O)NCc3ccco3)cc2)cc1,.,-16%
COc1ccc(CCN2CC(C(=O)NCc3cccc4[nH]ccc34)CCC2=O)cc1 (configuration not stated),-20%,-5%
CCn1cc(CN2CCC(C(=O)Nc3cccc(-c4cccc(F)c4)c3)CC2)cn1,-7%,-24%
CCOC(=O)C1CCCN(C(=O)c2cc3cc(Br)ccc3oc2=O)C1 (configuration not stated),i,-26%
CCC(O)CNC(=O)c1cnn(-c2nccc(-c3cc(C)sc3C)n2)c1C1CC1 (configuration not stated),-25%,-12%
Cc1ccc(C)c(NC(=O)Cn2nc(C)c3nn(-c4ccc(Cl)cc4)c(C)c3c2=O)c1,?,?
O=C(C1=NN[C@@H]2C(=O)N(c3cccc(C(F)(F)F)c3)C(=O)[C@H]12)C(c1ccccc1)c1ccccc1,-5%,3%
